Compound activity from PubChem BioAssay.
2A StopGo – lowers the luciferase signal of an FMDV 2A StopGo reporter. human cells with a luciferase reporter of 2A StopGo recoding; control for the full effect not named in the record. Potency, µM (highest dose often 57.9 µM), inactives show top-dose signal change, negative = less light. 1.2% of 410,000 active; active = well fitted falling curve with a large enough effect; inconclusive = small, poorly fitted or top-dose-only effect; inactive = no such curve, though single readings can be large or run the other way; tested in HEK293T cells; also: nearly all actives have a fitted effect of over 45% in size; luciferase light after 4 h
RE007 growth inh – less growth of the S. pombe RE007 Vpr strain; S. pombe RE007 Vpr strain, BacTiter-Glo ATP luminescence, 24 h; control for the full effect not named in the record; Potency, µM (doses to about 92.2 µM), for inactives: at the top dose activity change, negative = less growth; AID 651644; 0.21% of 360,000 active; active = well fitted falling curve with a large enough effect; inconclusive = small, poorly fitted or top-dose-only effect; inactive = no such curve, though single readings can be large or run the other way;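 also: nearly all actives have a fitted effect of over 50% in size; the assay follows cell death caused by Vpr and the record does not say whether a fall means rescue or toxicity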
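Fission yeast RE007 carrying one integrated HIV-1 vpr copy, seeded at OD 0.01 in PMG+AL medium with 23 nL pinned compound. Grown 24 h at 30 degrees; viability read by BacTiter-Glo luminescence after 5 min.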
Active calls of the source: *; ? = inconclusive; [ ] = dose if it differs, or a comment. % is scaled to controls: 0 for no effect and ±100 for the full control effect; potency is read from the fitted curve at half-maximal effect. An excerpt; rates above refer to the full screens.

Compound,2A StopGo,RE007 growth inh
O=C1NCN(c2ccccc2)C12CCN(C(c1cc3ccccc3o1)c1nnnn1-c1ccc3c(c1)OCCO3)CC2 (stereo not drawn),-6.5%,-5.5%
CC(C)(C)n1nnnc1C(CCc1ccccc1)N1CCC2(CC1)C(=O)NCN2c1ccccc1 (stereo not drawn),-27.8%,6.8%
O=C(c1ccc(CS(=O)Cc2ccccc2Cl)o1)N1CCN(c2ccccc2)CC1 (stereo not drawn),-26.6%,-6.5%
C[C@H]1CN(C2CCCCC2)C(=O)[C@@H]1CC(=O)Nc1ccc(Br)cc1,-21.1%,-7.9%
COc1cccc(-c2cnc(C(O)c3cccc(C)c3C)[nH]2)c1 (stereo not drawn),-0.5%,-14.3%
CCN(CC)CCn1c(=S)[nH]c2cc(C(=O)NCc3ccccc3)ccc2c1=O,26.3%,-9.6%
Cc1c(Cl)ccc(S(=O)(=O)N2CCN(C)CC2)c1Cl,0.0%,-9.6%
CC1(C)CC(=O)C=C(Nc2cccc(C(F)(F)F)c2)C1,-18.9%,23.1%
OCc1ccccc1-c1ccc2nccn2c1,6.9%,10.9%[18.4 µM]
CC1(Br)C(Sc2ccccc2[N+](=O)[O-])=Nc2ccccc21 (stereo not drawn),-0.1%,?
CCc1nc2ccc(C(=O)NCC3CCCCC3)cn2c1N(C)Cc1nccs1,-23.8%,-18.8%
Cc1cc2nc(-c3nnnn3Cc3ccccc3)c(=O)[nH]c2cc1C,?,8.0%
CC(=O)Nc1cccc(-c2csc(C(O)c3cccc(Cl)c3)n2)c1 (stereo not drawn),?,2.7%
CCN(CC)C(=O)C1=C(C)N(CCCOC)C(=O)C(CC(=O)NC2CCCCC2)C1 (stereo not drawn),0.0%,-2.3%
CCNC(=O)C1CCCN(C(=O)c2cccc(Cl)c2)CC1 (stereo not drawn),-3.6%,-5.6%
CC1=Nc2nc(N3CCCCCC3)c(C#N)c3c4c(nc(c23)N1)N(c1ccc2ccccc2c1)C(=O)C4,-2.9%,4.3%
C#CCNC(=O)C[C@@H]1C[C@@]2(C(=O)OC)CC(C)(C)CC=C2N(Cc2ccccc2)C1=O,-22.4%,-20.1%
C/C=C1\COC(C(=O)NCc2cccc(OC)c2OC)(C(F)(F)F)C=C1C=C1CCCCC1 (stereo not drawn),-17.4%,-4.1%
CNS(=O)(=O)c1ccc2c(c1)[nH]c(=S)n2C,-8.9%,-5.3%
CCC[C@H]1CC(=O)C=C(c2ccc(OC)cc2)ON1C(=O)OC(C)(C)C,-7.0%,2.6%
COc1ccc(N2CCN(c3cc(C(=O)Nc4cc(OC)c(OC)c(OC)c4)ncn3)CC2)cc1OC,-15.9%,-27.8%
Cc1csc(=O)n1CC(=O)OCC(=O)Nc1ccc(F)c(F)c1F,-20.1%,-6.3%
O=C1c2ccccc2C(c2nnnn2-c2ccc3c(c2)OCCO3)N1CCc1ccc(O)cc1 (stereo not drawn),16.2%,-0.9%
Nc1[nH]c(C(=O)c2ccccc2)c(-c2ccccc2Br)c1C(=O)c1ccccc1,-36.4%,2.0%
C[C@H]1CNC(=O)c2c(C(=O)N3CCN(C(=O)OC(C)(C)C)CC3)ncn21,-5.9%,12.4%

Laid out differently: results already given
canonical_smiles: OCc1ccccc1-c1ccc2nccn2c1
  2A StopGo = 6.9%	RE007 growth inh = 10.9%[18.4 µM]
canonical_smiles: CCC[C@H]1CC(=O)C=C(c2ccc(OC)cc2)ON1C(=O)OC(C)(C)C
  2A StopGo = -7.0%	RE007 growth inh = 2.6%

New compounds follow
Compound,2A StopGo,RE007 growth inh
CCOC(=O)C1(C)CCN1C(=O)c1cccnc1Oc1ccccc1 (stereo not drawn),-9.0%,12.2%
C=CCN1C=CC(=O)[C@@H](OC(=O)Nc2ccc(Br)cc2)[C@H]1c1ccccc1Br,-27.7%,-14.5%
COCc1cccc(-c2csc(C(C)(O)c3cccc(OC)c3)n2)c1 (stereo not drawn),0.0%,-7.2%
CCOC(=O)c1cc(OC(=O)Cc2ccc(OC)c(S(=O)(=O)N3CCOCC3)c2)cc(C(=O)OCC)c1,-6.8%,-3.0%
c1ccc(-c2ccc3cnccc3n2)cc1,32.4%[activator],-22.1%
CN(Cc1ccccc1)C(=O)c1ccc2sc([C@@H]3O[C@H](CO)[C@H](O)[C@H](O)[C@H]3O)nc2c1,-5.0%,-13.5%
COc1ccc(C(=O)Oc2ccc(C)cc2)cc1S(=O)(=O)N1CCOCC1,-26.5%,4.3%
C[C@@H]1CN([C@H](C)CO)C(=O)CCCn2nncc2CO[C@@H]1CN(C)S(=O)(=O)c1cccc(F)c1,14.5%,2.2%
CN(Cc1ccccc1)C(=O)c1cccc(NC(=O)Cc2ccc(NC(=O)C3CCN(C(=O)c4ccccc4)CC3)cc2)c1,0.0%,-7.4%
FC(F)(F)c1ccccc1Cc1c(-c2cccc(Cl)c2)nc2ccc(Cl)cn12,12.4%,-11.5%
CC(C)C[C@H]1CN(CCCC[C@H]2CNC(=O)C(=O)N2Cc2ccccc2)C(=O)C(=O)N1CC1CCCCC1,-4.7%,4.8%
CCOC(=O)C[C@H]1c2ccccc2S(=O)(=O)N1Cc1ccc(Cl)cc1,-20.8%,-2.1%
CN1CCN(c2ncnc3c2ncn3[C@H]2CN(Cc3ccc(C(=O)O)cc3)C[C@@H](CO)O2)CC1,-13.2%,-1.2%[18.4 µM]
CC(=O)Nc1ccc(S(=O)(=O)c2ccnc3cc(Cl)ccc23)cc1,31.6µM*,-5.2%
C[C@H]1CN([C@@H](C)CO)C(=O)CCCn2cc(nn2)CO[C@@H]1CN(C)C(=O)Nc1ccc2c(c1)OCO2,-7.2%,-2.2%
Cc1cc(Br)cn2c(Cc3ccsc3)c(-c3ccc(Cl)cc3)nc12,-25.7%,-19.4%
CCCNC(=O)c1cc(C2CCCCN2C(=O)OCC(C)C)on1 (stereo not drawn),-2.2%,15.6%
C[C@H]1CN([C@@H](C)CO)C(=O)CCCn2nncc2CO[C@@H]1CN(C)C(=O)c1ccc(N2CCN(C)CC2)cc1,-10.5%,-5.7%
COc1cc(CN2CCC(C(=O)NC(c3ccc(F)cc3)c3ncccc3C)CC2)cc(OC)c1 (stereo not drawn),-24.6%,8.8%
CCC(C(=O)Nc1c(C)cccc1C)n1c(-c2cc(C)cs2)nc2ccccc21 (stereo not drawn),-4.5%,0.0%
COc1cccc(C2=CC(=O)CC(C)(C)C2=O)c1,-23.9%,-10.6%
COc1ncccc1C(=O)Nc1c(-c2ccccc2)[nH][nH]c1=O,-22.2%,4.9%
O=C(OCC(=O)N1CCCCCC1)c1cc(S(=O)(=O)N2CCOCC2)ccc1F,-18.2%,4.7%
CCOC(=O)C1=C[C@@H](C(C)C)N(S(=O)(=O)c2ccc([N+](=O)[O-])cc2)[C@H]1c1ccccc1,?,2.8%
OC[C@H]1O[C@@H](c2nc3ccc(-c4nc(-c5cccs5)no4)cc3[nH]2)C[C@@H]1O,0.4%,0.9%

As entered above.
Under 2A StopGo, c1ccc(-c2ccc3cnccc3n2)cc1 reads 32.4%[activator]
Under RE007 growth inh, FC(F)(F)c1ccccc1Cc1c(-c2cccc(Cl)c2)nc2ccc(Cl)cn12 reads -11.5%
Under 2A StopGo, CCNC(=O)C1CCCN(C(=O)c2cccc(Cl)c2)CC1 (stereo not drawn) reads -3.6%
Under 2A StopGo, C[C@H]1CN([C@@H](C)CO)C(=O)CCCn2cc(nn2)CO[C@@H]1CN(C)C(=O)Nc1ccc2c(c1)OCO2 reads -7.2%

Other records
Compound,2A StopGo,RE007 growth inh
CCCCN1C(N)=NC[C@@H]1C(C)O (stereo partly drawn),-10.8%,-2.7%
OC[C@@H]1CN(Cc2cccs2)C[C@H](n2cnc3c(N4CCOCC4)ncnc32)O1,8.7%,5.3%
O=C(CC[C@H]1O[C@@H](n2ccc(=O)[nH]c2=O)[C@H](O)[C@@H]1O)N[C@H](Cc1ccccc1)C(=O)NCC1CCCO1 (stereo partly drawn),-10.5%,4.3%
CCc1nc2c(OCC(=O)C(C)(C)C)cccn2c1N(C=O)CC(=O)N(C)C,-4.0%,-1.6%
CC(=O)NC(c1cccc(F)c1)c1nc(-c2cccc(C(=O)O)c2)cs1 (stereo not drawn),30.7%[activator],-1.4%
Cc1cc(C(=O)N2CCC2(C)C(=O)NS(=O)(=O)c2ccc(Cl)cc2)nn1C (stereo not drawn),3.2%,9.6%
COC(=O)[C@]12CCCCC=C1N(Cc1ccccc1)C(=O)[C@H](CC(=O)NCc1cccc(C(F)(F)F)c1)C2,-14.3%,28.9%
O=C(N[C@H]1CC[C@@H](CCNS(=O)(=O)c2ccccc2Cl)O[C@@H]1CO)c1ccccc1,-18.8%,7.7%
CCCC(=O)N1CCC1(C)C(=O)Nc1ncc(C(=O)OC)s1 (stereo not drawn),-10.1%,17.4%
CC(=NO)C1(C)CC=CCC1CO (stereo not drawn),-9.6%,1.0%
O=C(C[C@@H]1C=C[C@@H](NC(=O)Nc2cccc(F)c2)[C@@H](CO)O1)NCC1CCCCC1,-15.6%,4.9%
CCN(C(=O)CN1C(=O)NC2(CCCC2)C1=O)c1nc2c(C)cccc2s1,-33.9%,4.7%
CNc1cncc(-c2cccc(OC)c2F)n1,52.8%[activator],-11.9%
CCCCC[C@@H](C)N1C[C@@H](COCc2ccccc2)Oc2cc(N3CC[C@@H](O)C3)ccc2S1(=O)=O,-12.7%,-9.3%
Cc1ccc(C)c(NC(=S)N2CCC(C(=O)c3ccc(F)cc3)CC2)c1,11.9%,5.7%
CCOc1ccccc1NCN1C(=O)c2ccccc2C1=O,0.0%,-4.3%
CCOC(=O)[C@]12CCCC=C1N(CCC1=CCCCC1)C(=O)[C@H](CC(=O)N1CCSCC1)C2,-15.9%,0.0%
CCc1ccc(/C=C2\SC(=S)N(CCCC(=O)NCCCN3CCOCC3)C2=O)cc1,?,-11.8%
Cc1ccc(-c2nc3ccc(Br)cn3c2Cc2ccsc2)cc1,27.4%,?
COC(=O)c1ccc(CNC(=O)CC[C@H]2O[C@@H](n3cc(C)c(=O)[nH]c3=O)C[C@@H]2O)cc1,-2.1%,17.3%
CCOC1=C2CN(S(=O)(=O)c3ccc(C)cc3)C(c3cccc(Cl)c3)CC2NC(c2ccccc2)C1 (stereo not drawn),5.1%,-12.5%
CCCCn1nnnc1C(c1cc2ccccc2o1)N1CCCCC1 (stereo not drawn),3.1%,4.7%
CC(C)(C)S(=O)N1Cc2cc(C(=O)N[C@@H]3CCN(Cc4ccccc4)C3)nc(-c3cccc(-c4cc5ccccc5o4)c3)c2[C@@H]1CCO (stereo partly drawn),?,-28.0%
CC(C)C[C@H]1CNC(=S)N1C[C@H]1CCCN1C[C@H](Cc1ccc(O)cc1)N1C[C@H](Cc2ccc(O)cc2)N(CCc2ccccc2)C1=S,-10.5%,-10.6%
CCCCCCCCN1[C@@H](CC(=O)OCC)c2cc(F)ccc2S1(=O)=O,?,1.4%
CC(=O)Nc1cc(-c2cccc(C(=O)NCCO)c2)cn2c(-c3ccc(F)c(Cl)c3)cnc12,-4.8%,10.6%
O=C(COC(=O)c1cc(S(=O)(=O)N2CCOCC2)ccc1Cl)Nc1ccc(Cl)cn1,-15.4%,2.7%
CC(C)CC1OC(C(C)C)Cc2[nH]c(=S)[nH]c(=O)c21 (stereo not drawn),0.0%,-1.6%
FC(F)(F)c1cccc(-c2cncc(N3CCN(CCN4CCCC4)CC3)n2)c1,-13.6%,-13.0%
COC(=O)C[C@H]1C=C[C@@H](NC(=O)Cc2cccnc2)[C@@H](CO)O1,-10.9%,-14.3%
CCCCCCn1cc(CN2CC(N3CCN(Cc4cccc(C)c4)CC3)CS2(=O)=O)nn1 (stereo not drawn),?,-20.4%
CC1CCCC(NC(=O)CSc2nnc(-c3cccnc3)o2)C1C (stereo not drawn),50.3%[activator],14.9%
CCCCNC(=O)CNC(=O)c1nn(-c2ccc(OC)c(OC)c2)c(=O)c2ccccc12,-28.7%,4.1%
CC(=O)Nc1ccc(C(=O)N2CCCC(c3cc(C(=O)NCc4cccnc4)no3)C2)cc1 (stereo not drawn),-12.8%,-7.3%
Cc1ccccc1CN1C(=O)C(C)Sc2ccc(-c3ccco3)cc21 (stereo not drawn),0.0%,-5.5%
CCc1ccc([C@@H]2CC(=O)[C@@H]3CN(S(=O)(=O)c4ccc(C)cc4)[C@H](c4ccc(Cl)cc4)C[C@@H]3N2S(=O)(=O)c2ccc(C)cc2)cc1,0.0%,1.6%
c1ccc(CN2CCC3CC2c2ccc(N4CCOCC4)cc23)cc1 (stereo not drawn),-9.7%,4.3%
CCc1nc(N2CCN(C(=O)CCCl)CC2)c2c3c(sc2n1)CCCC3,-22.1%,3.1%
CCN1C(=O)N[C@H](c2ccccc2)C(C(C)=O)=C1C,-1.8%,-7.5%
O=C(COC(=O)c1cccc(S(=O)(=O)N2CCCC2)c1)Nc1cccc(Br)c1,-14.8%,3.8%
